Six1-Eya2 blk: blocks human Six1 binding to Eya2; activity change, % (concentration not given with the values); Q15475+O00167; 0.56% of 360,000 active; AlphaScreen GST-Six1/His-Eya2 binding, biochemical; stronger effect = lower value; control for the full effect not named in the record; AID 651725; in the data active = activity change below about -65%; inconclusive = about -30% to -65%; inactive = above about -30%; further: on the % scale 0 is the no-effect control and ±100 the full control effect
Target sequence (O00167 whole entry, looked up): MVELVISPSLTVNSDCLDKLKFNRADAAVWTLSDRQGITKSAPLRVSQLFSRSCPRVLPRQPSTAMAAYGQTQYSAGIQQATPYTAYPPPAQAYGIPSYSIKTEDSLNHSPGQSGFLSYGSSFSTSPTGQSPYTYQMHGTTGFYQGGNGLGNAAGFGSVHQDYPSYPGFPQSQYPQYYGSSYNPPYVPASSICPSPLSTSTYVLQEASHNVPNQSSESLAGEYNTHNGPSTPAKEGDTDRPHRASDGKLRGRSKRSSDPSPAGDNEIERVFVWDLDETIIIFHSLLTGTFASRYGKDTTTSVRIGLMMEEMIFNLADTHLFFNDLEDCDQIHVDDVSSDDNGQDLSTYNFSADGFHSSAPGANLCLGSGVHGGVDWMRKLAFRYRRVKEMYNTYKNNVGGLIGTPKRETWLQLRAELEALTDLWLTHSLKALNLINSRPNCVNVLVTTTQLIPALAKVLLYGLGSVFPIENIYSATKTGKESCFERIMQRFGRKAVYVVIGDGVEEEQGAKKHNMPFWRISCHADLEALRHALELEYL
Target sequence (Q15475 whole entry, looked up): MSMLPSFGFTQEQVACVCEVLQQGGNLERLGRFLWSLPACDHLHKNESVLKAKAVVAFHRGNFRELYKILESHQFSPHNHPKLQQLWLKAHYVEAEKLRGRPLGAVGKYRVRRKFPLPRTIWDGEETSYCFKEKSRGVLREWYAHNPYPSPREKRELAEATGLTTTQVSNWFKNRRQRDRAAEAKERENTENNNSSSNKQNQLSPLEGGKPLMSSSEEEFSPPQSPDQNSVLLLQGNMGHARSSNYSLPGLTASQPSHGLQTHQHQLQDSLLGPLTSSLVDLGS
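Compounds are tested against tagged Six1 and Eya2 proteins bridged by glutathione donor and nickel acceptor beads; after a one-hour incubation at 37 °C without light, AlphaScreen emission is recorded.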
gsp ag: activates gsp, the McCune-Albright syndrome mutation | gsp mutant cells, cAMP HTRF, 30 min; control for the full effect not named in the record | Potency, µM (series often up to 76.9 µM), for inactives: at the highest dose activation (cAMP increase), most hits filed as activators | 0.13% of 340,000 active | AID 624287; active = well fitted activation curve with a large enough effect; inconclusive = small, poorly fitted or top-dose-only effect, or another doubt; inactive = no such curve, though single readings can be large or run the other way; cell line not stated here;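 further: phosphodiesterase inhibitor Ro 20-1724 added with compounds to block cAMP breakdown; potency means the concentration at half of the fitted maximal effect; nearly all actives have a fitted effect of over 60% in size; about a fifth of the inactives were tested at one dose only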
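Cells stably selected in G418 were plated at 2000/well, grown 16-24 hr, then given compounds in DMSO with the PDE inhibitor […] (300 uM solution added) for 30 min at 37C; cAMP was read by HTRF.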
D2 ag: agonists of human D2 dopamine receptor (beta-arrestin); AID 624465; activation, % (test concentration not listed); DiscoveRx PathHunter D2 beta-arrestin, luminescence, 90 min; 100% = 57 uM dopamine signal; 0.084% of 360,000 active; in the data active = activation above about 40%; inconclusive = about 15% to 40%; inactive = below about 15%; further: compound concentration not given in the record; the text of the record calls up to 30% inactive
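Agonist mode: compounds alone added to overnight-plated D2 PathHunter cells for 90 min at 37 C, with 57 uM final dopamine (EC100) defining full response. Beta-arrestin recruitment detected by chemiluminescent reagent, read after 1 h at ambient temperature.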
CtBP-E1A inh: inhibitors of CtBP/E1A interaction | AlphaScreen GST-E1A/His-CtBP binding, 1536-well; stronger effect = lower value; control for the full effect not named in the record | activity change, % (concentration not given with the values) | 0.49% of 340,000 active; in the data active means activity change below about -65%; inconclusive means about -30% to -65%; inactive means above about -30%; further: on the % scale 0 is the no-effect control and ±100 the full control effect
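Steps: dispense buffer (Tris pH 8.0, NaCl 300 mM, TCEP 1 mM, BSA, Tween 20); add 5X protein mix (GST-E1A, His-CtBP, 125 nM each); pin 23 nL compound; 2 h at 37 °C, dark; add 5X beads (50 ug/mL); 1 h; read.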
gsp antag: antagonists of gsp mutant (McCune-Albright syndrome). gsp-mutant cells, cAMP HTRF, 30 min; control for the full effect not named in the record. Potency, µM (series often up to 76.9 µM), for the others: top-dose activity change, negative = inhibition, most hits filed as inhibitors. 0.4% of 340,000 active; active = falling curve of any shape with a large fitted effect; inconclusive = falling curve, mostly with a smaller effect; inactive = flat or rising curve; cell line not stated here;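 further: intracellular cAMP measured with PDE inhibitor Ro 20-1724 present during compound exposure; potency means the concentration at half of the fitted maximal effect; on the % scale 0 is the no-effect control and ±100 the full control effect; nearly all actives have a fitted effect of over 65% in size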
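Cells, 2000/well, grown 16–24 h in DMEM 10% FBS with 0.5 mg/ml G418, then compounds plus […] (300 uM addition stock), 30 min at 37C. cAMP read by HTRF (cAMP-d2 and anti-cAMP antibody-K in lysis buffer) after 30 min RT.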
D2 PAM: potentiates the human D2 dopamine receptor allosterically; 0.23% of 360,000 active; potentiation, % (test concentration not listed); P14416; DiscoveRx D2 beta-arrestin cells, luminescence, 90 min; 100% = 57 uM dopamine signal; active = potentiation of 50% or more; inconclusive = 30% to 50%; inactive = 30% or less;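 further: compound concentration not given in the record; tested on top of an EC20 dose of dopamine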
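D2 cells co-treated with compound plus 50 nM dopamine (EC20) for 90 min at 37 deg C to detect potentiation. Beta-arrestin recruitment was read as enzyme-fragment luminescence after 1 h at ambient temperature. Full response was set by 57 uM dopamine.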
Numbers without * were called inactive; ? = inconclusive; / = no result given; [ ] = remark or other dose.

SMILES | Six1-Eya2 blk | gsp ag | D2 ag | CtBP-E1A inh | gsp antag | D2 PAM
CN(C(=O)CSc1nc2cc(Cl)ccc2c(=O)n1Cc1ccco1)C1CCS(=O)(=O)C1 (stereo not drawn) | -11 | -17% | 2.0 | 2 | -13% | -6
CCc1nnc(NC(=O)CSCc2cc(=O)n3cc(C)sc3n2)s1 | 2 | ? | -1.4 | 2 | 10% | -4
COC(=O)c1ccc(NC(=O)COC(=O)CSc2nc(C)cc(C)n2)cc1 | 5 | 7% | 2.8 | 10 | -8% | 10
Cc1cc2[nH]c(=O)c3ccccc3n2n1 | -9 | 18% | 0.3 | -22 | 16% | -16
CCn1nc(C)c(NC(=O)CCSc2nc(-c3ccco3)cc(C(F)(F)F)n2)c1C | -5 | -11% | -0.6 | -1 | -24% | 11
N#CC1C(=O)Nc2cccnc21 (stereo not drawn) | -9 | ? | -5.8 | -2 | / | -14
COc1ccc(-n2c(=O)c3ccccc3n(CC(=O)Nc3ccccc3OC)c2=O)cc1 | 6 | -7% | 0.4 | 10 | -11% | 6
CCn1c(CNC(=O)c2ccco2)nnc1SCC(=O)Nc1cccc(F)c1 | 1 | -23% | -2.3 | 3 | -1% | -3
CCC(=O)Nc1nnc(SCC(=O)Nc2ccc3c(c2)OCO3)s1 | -2 | 2% | -1.9 | -3 | 0% | -16
CCOCCCn1c(SCc2nc3sc(C(=O)O)c(C)c3c(=O)[nH]2)nnc1-c1ccc(Cl)cc1 | -9 | 11%[15.4 µM] | 2.8 | 4 | -16% | -4
COc1cccc2c1OC1(CCN(C(C)C)CC1)N1N=C(c3cccnc3)CC21 (stereo not drawn) | -21 | ? | -3.9 | 2 | -11% | -7
O=C(CSc1nnnn1C1CCCC1)NCc1cccs1 | 6 | -28% | -0.2 | / | 5% | -11
CCOc1cccc(C(=O)Nc2cccc(-c3nnc(-c4ccc(C)cc4)o3)c2)c1 | -1 | -14% | -4.7 | 1 | 11% | 1
O=C(O)CC1(CC(=O)NCc2ccc(Cl)cc2)CCCCC1 | 8 | 6% | -5.0 | / | -9% | -2
O=C(Nc1ccc(Cl)c(S(=O)(=O)N2CCOCC2)c1)c1cc2ccccc2oc1=O | 1 | -7%[15.4 µM] | -1.5 | 10 | -5% | -7
Cc1ccc(CNC(=O)CN2CCC(C(N)=O)CC2)cc1 | 2 | 12% | -3.1 | -1 | 2% | -6
COc1ccccc1N/C(N)=N/c1nc(CSc2ccc(C)cc2)cc(=O)[nH]1 | -11 | -39%[inhibitor] | -2.7 | -3 | ? | -5
O=C(CCS(=O)(=O)c1ccc(Br)cc1)NCCc1ccc(Cl)cc1 | -10 | -8% | -5.1 | / | 3% | -4
CCC1CCCCN1S(=O)(=O)c1ccc(NC(=O)c2cccs2)cc1 (stereo not drawn) | -3 | -35%[inhibitor] | -1.0 | -13 | -6% | -13
CC(C)N(Cc1ccccc1)C(=S)NCCN1CCOCC1 | 4 | -9%[15.4 µM] | -2.3 | -21 | 10% | -4
CCC(C)n1c(=N)c(C#N)cc2c(=O)n3cc(C)ccc3nc21 (stereo not drawn) | 1 | -1% | -3.8 | -3 | 5% | -6
COc1cc(F)ccc1-c1csc(C(O)(c2ccccc2)C(F)(F)F)n1 (stereo not drawn) | 8 | / | -5.6 | 2 | / | -10
CCOC(=O)c1ccc(NC(=O)CSCC(=O)OCC(=O)c2ccccc2)cc1 | -3 | -56%[inhibitor] | -5.9 | 1 | -16% | -17
CCOc1ccccc1N(CC(=O)NCCc1ccc(OC)c(OC)c1)S(=O)(=O)c1ccccc1 | 3 | -9%[15.4 µM] | 4.7 | -12 | / | 3
O=C(CCl)Nc1cccc(S(=O)(=O)NC2=NCCC2)c1 | 8 | -12% | -3.4 | 3 | -8% | -12
Next entries
SMILES | Six1-Eya2 blk | gsp ag | D2 ag | CtBP-E1A inh | gsp antag | D2 PAM
C/C(CC(=O)Nc1cc(Cl)ccc1Cl)=N\NC(=O)COc1cccc(C)c1 | -7 | -11%[15.4 µM] | 0.0 | 2 | -17% | -2
Cc1ccccc1-n1c(C)nnc1SCc1cc(=O)oc2ccc3ccccc3c12 | 5 | 9% | -0.4 | -1 | -17% | -1
CCN(c1ccc(OC)cc1)S(=O)(=O)N1CCCC(C(=O)NCc2ccc(OC(C)C)cc2)C1 (stereo not drawn) | -6 | -49%[inhibitor] | 0.6 | 3 | / | -4
Cc1nnc(NC(=O)c2cccc(NC(=O)C(C)C)c2)s1 | -3 | 4% | -3.6 | 1 | 6% | -6
CCN(CC)C(=O)c1ccc(-c2nnc(Nc3ccc(O)cc3)c3ccccc23)cc1 | -2 | -61% | 0.2 | / | -33% | 8
Cc1nn(C)c(C)c1NC(=O)CCl | -1 | -8%[15.4 µM] | -0.4 | -8 | -1% | -8
O=C(Nc1ccc2c(c1)OCO2)C1CC(c2ccccc2Cl)=NO1 (stereo not drawn) | -4 | -4% | -2.8 | 4 | 0% | -18
COc1ccc2nc(SCC(N)=O)[nH]c2c1 | -2 | -30% | -1.9 | 12 | 14% | -9
O=[N+]([O-])c1ccc(SCCO)nc1SCCO | -6 | -5%[15.4 µM] | -2.4 | -7 | -5% | -2
COc1ccc(C(=O)Nn2cnnc2)c(OC)c1 | 2 | 17% | -2.0 | -1 | 7% | -1
N#C/C(=C\c1ccc(-c2cccc([N+](=O)[O-])c2)o1)C(=O)Nc1nc(-c2cccs2)cs1 | -2 | 22% | -10 | / | -17% | -2
Cc1nc2ccccc2c(=O)n1/N=C/c1cccnc1 | -2 | -3% | -2.1 | -14 | 11% | -3
COc1ccc(NC(=O)c2cc(Br)ccc2Cl)c(OC)c1 | 6 | -12% | -3.3 | -4 | -5% | -13
Cc1noc(C)c1COC(=O)CCCc1c[nH]c2ccccc12 | -6 | 1% | -2.5 | -2 | -25% | 14
O=C(CSc1nnc(Cc2cccs2)n1-c1ccccc1)NC1CCCCC1 | 1 | -28% | -1.1 | -3 | 1% | -17
Cc1c(C#N)c2ncnc(N)c2n1-c1ccccc1 | -9 | 17% | 2.7 | 2 | -7% | -12
N#Cc1nc(COc2ccc(Cl)cc2Cl)oc1N1CCN(c2ccccc2)CC1 | -28 | 20% | -0.3 | -2 | 10% | -19
CCN(CC)c1nc(Nc2ccc(Cl)cc2)nc(OCC#N)n1 | 2 | ? | -2.6 | -2 | -9%[15.4 µM] | 1
Cc1ccc(-n2nc3c(N4CCC(C(=O)N5CCC(C(N)=O)CC5)CC4)nnc(C)c3c2C)cc1 | -13 | ? | -0.1 | / | 4% | -9
CN(C)CCN1CCN(C2CN(Cc3ccc(F)cc3)S(=O)(=O)C2)CC1 (stereo not drawn) | 14 | / | -4.2 | -13 | / | -7
CCCCn1c(SCC(=O)NNC(=O)c2ccco2)nnc1-c1ccco1 | 12 | 0%[15.4 µM] | -0.8 | / | -3% | -4
C=CCN1c2ccccc2[C@]23C[C@@H](C(=O)OC)N(C(=O)c4ccc(Br)cc4)C2=NC(C(=O)OC)=C(C(=O)OC)[C@H]13 | -16 | / | -3.0 | -18 | -12% | -5
O=C(Nc1cccnc1)C1CCCN(S(=O)(=O)c2ccccc2)C1 (stereo not drawn) | 2 | 32% | -4.1 | -1 | 6% | -11
O=Cc1ccc(OCCCOc2cccc3cccnc23)cc1 | -17 | -33%[inhibitor] | -1.9 | / | -20% | -23
CCOC(=O)c1cc(-c2ccccc2)nc2nc(N3CCCCC3)sc12 | 6 | -21%[15.4 µM] | -2.3 | 16 | 9% | -6

Gathered by group: those above with a nitro group on carbon
SMILES | Six1-Eya2 blk | gsp ag | D2 ag | CtBP-E1A inh | gsp antag | D2 PAM
O=[N+]([O-])c1ccc(SCCO)nc1SCCO | -6 | -5%[15.4 µM] | -2.4 | -7 | -5% | -2
N#C/C(=C\c1ccc(-c2cccc([N+](=O)[O-])c2)o1)C(=O)Nc1nc(-c2cccs2)cs1 | -2 | 22% | -10 | / | -17% | -2

Single entries from the results shown.
In D2 ag, CCCCn1c(SCC(=O)NNC(=O)c2ccco2)nnc1-c1ccco1 has the entry -0.8
In gsp ag, COc1ccc2nc(SCC(N)=O)[nH]c2c1 has the entry -30%
In D2 ag, C/C(CC(=O)Nc1cc(Cl)ccc1Cl)=N\NC(=O)COc1cccc(C)c1 has the entry 0.0
In Six1-Eya2 blk, O=C(Nc1cccnc1)C1CCCN(S(=O)(=O)c2ccccc2)C1 (stereo not drawn) has the entry 2
In Six1-Eya2 blk, CCOC(=O)c1cc(-c2ccccc2)nc2nc(N3CCCCC3)sc12 has the entry 6

New compounds follow:
SMILES | Six1-Eya2 blk | gsp ag | D2 ag | CtBP-E1A inh | gsp antag | D2 PAM
COc1ccc(CNC(=O)CSc2nnc(C)s2)cc1 | 0 | 16% | -2.8 | 1 | 5% | -4
CN1CC(c2ccccc2)C(c2ccc(Cl)cc2)=N1 (stereo not drawn) | -18 | -21%[15.4 µM] | -2.6 | 5 | -13% | 1
COc1ccc2c(CN3CCCC3)cc(=O)oc2c1 | 1 | / | -6.4 | 5 | / | -13
O=C(O)CSc1ncnc2sc3c(c12)CCC3 | -4 | ? | -4.2 | -25 | -7% | -3
CCCCn1nc(NC(=O)CC)c2cc3cc(OC)ccc3nc21 | 32 | -43% | ? | 21 | -24% | 9
Nc1c(Br)c(=O)[nH]c(=O)n1-c1ccc(F)cc1 | -4 | 22% | -1.9 | 3 | 7% | -3
COc1cccc(CNC(=O)CCC2CCCN(C(=O)C3=CC(=O)CC(C)(C)O3)C2)c1 (stereo not drawn) | 5 | -13%[15.4 µM] | -4.2 | -4 | 4% | 0
CCN(CC)S(=O)(=O)c1c(OC)cc(C)c(Cl)c1C | 11 | 5% | -3.1 | / | -15% | -12
CC1(C)CC(N=Cc2c(O)n(Cc3ccc4c(c3)OCO4)c(=O)c3ccccc23)CC(C)(C)N1 | -9 | 12%[15.4 µM] | -23 | -14 | 9% | -6
CCN(CC(=O)Nc1c(F)cccc1F)C(=O)CCN1C(=O)c2cccc([N+](=O)[O-])c2C1=O | 2 | -19% | 1.9 | -1 | -14% | 13
O=C(OCC(=O)C12CC3CC(CC(C3)C1)C2)c1ccc(CO)cc1 | 2 | -74%[inhibitor] | 1.6 | 8 | 11% | 0
Cc1cc(OCC(=O)NCC(c2cccs2)N2CCOCC2)ccc1C(C)C (stereo not drawn) | 2 | -8%[15.4 µM] | 2.7 | -1 | -7% | 10
O=C1C[C@@H](c2ccc(O)cc2)Oc2cc(O)cc(O)c21 | -2 | / | -0.3 | 4 | -4% | -17
CCC(CC)c1nnc(NC(=O)CCCN2C(=O)c3ccccc3C2=O)s1 | 9 | 1% | 0.3 | -3 | 5% | -1
COCCNCCOc1ccc(C)cc1[N+](=O)[O-] | 12 | -5% | -2.3 | 0 | 50µM* | -21
Fc1cccc(Cl)c1CSc1nnnn1-c1ccc2c(c1)OCO2 | 7 | 13% | -0.4 | 10 | -7% | -8
CC1CN(C(=O)COC(=O)[C@@H]2CC(O)CN2S(=O)(=O)c2ccc3c(c2)OCCO3)CC(C)O1 (stereo partly drawn) | -1 | -20% | -1.2 | -6 | 8% | -10
O=C(N=C1N=C2C=CC=CN2Cc2ccccc21)c1ccc(S(=O)(=O)N2CCCC2)cc1 | 0 | -3%[15.4 µM] | -1.9 | -8 | 1% | -6

Bioassay records from PubChem BioAssay.
